Ab BasE inh = BasE siderophore biosynthesis inhibition; hit rate 0.1% among 84,000; inhibition, % (concentration not given with the values); purified BasE, fluorescence polarization binding displacement; AID 485350;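 active means both replicates above 25% with normal brightness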;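 further: 0% = negative plate control signal and 100% = positive plate control signal; stock transfer was 100 nL into about 30 µL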
KSHV LANA nucl = inhibitors of KSHV LANA binding to nucleosomes; FITC-LANA1-23 / chicken nucleosome fluorescence polarization; hits give low values; z-score (test concentration not listed); hit rate 0.3% among 51,000;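 active means both repeat wells score below -2 in polarization z-score versus plate sample wells, excluding overly bright wells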;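 further: 100 nL library stock added to about 30 µL; numbers are from one replicate; some results filed as inactive read as strong as hits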
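System – purified chicken nucleosomes with FITC-labelled LANA N-terminal peptide (1-23) · Amount – 240 nM purified chicken nucleosomes (480 nM peptide binding sites), final · Also added – 50 nM FITC-LANA1-23 probe · Medium – TEN-BT buffer, pH 7.5 · Incubation – compound with peptide–nucleosome mix 10–45 min at room temperature · Detection – fluorescence polarization, ex 480 nm, em 535 nm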
The depositor's hits bear a star; / = not tested or not shown; & = joins results of further samples. Only part of the results is shown (hit frequency here may not be typical).

#1 CC(C)(C)C(=O)c1cn(CC(=O)NCc2ccco2)c2ccccc12
#2 COc1ccc(OC)c(/C=C2\C(=O)C3CCN2CC3)c1
#3 CC1CN(Cn2nc(C(=O)O)c3ccccc32)CC(C)O1 (stereo not drawn)
#4 CC1CCC2C(C)C(=O)OC3OC4(C)CCC1C32OO4 (stereo not drawn)
#5 COc1cc2c(cc1OC)[C@@]13CCN4CC5=CCOC6CC(=O)N2C1[C@H]6[C@H]5C[C@H]43 (stereo partly drawn)

| Screen / compound no. | 1 | 2 | 3 | 4 | 5 |
| --- | --- | --- | --- | --- | --- |
| Ab BasE inh | -0.4 | -2.3 | 2.8 | 1.6 | -1.7 |
| KSHV LANA nucl | -0.534 | 0.621 | / | 1.11 | -0.122&-0.397 |

#6 O=C(COc1ccccc1)N1CCN(CC(O)COc2ccccc2)CC1 (stereo not drawn)
#7 CCN1C(=O)NC(=O)/C(=C\c2cn(CC(=O)NCC3CCCO3)c3ccccc23)C1=O (stereo not drawn)
#8 O=C(CNC1CCCCC1)N1CCC2(CC1)OCCO2
#9 C1CNC2NCCNC2N1 (stereo not drawn)
#10 CN1C(=O)C(=Cc2ccco2)C(=O)N(C)C1=O

| Screen / compound no. | 6 | 7 | 8 | 9 | 10 |
| --- | --- | --- | --- | --- | --- |
| Ab BasE inh | 0.5 | 2.6 | -1.8 | 1.1 | 3.0 |
| KSHV LANA nucl | -0.212 | -0.687 | 2 | -0.18 | 0.043 |

#11 OCCCNc1c2c(nc3ccccc13)CCCC2
#12 CN(C)C(=O)Oc1cccc(N)c1
#13 O=C1NC(=S)NC(=O)C1=C/C=C/c1ccco1
#14 CNC(C)C(=O)C12CC3CC(CC(C3)C1)C2 (stereo not drawn)
#15 COc1ccc(-n2c(CCC(=O)O)nc3ccccc3c2=O)c(OC)c1

| Screen / compound no. | 11 | 12 | 13 | 14 | 15 |
| --- | --- | --- | --- | --- | --- |
| Ab BasE inh | 0.5 | 0.9 | 18.6 | -0.1 | -4.2 |
| KSHV LANA nucl | 0.764 | / | 1.68 | 0.867 | / |

#16 S=P1(N2CCOCC2)C2=C(CCC2)C2=C(CCC2)N1c1ccccc1 (stereo not drawn)
#17 CC(Cc1ccc(O)cc1)NCC(O)c1cc(O)cc(O)c1 (stereo not drawn)
#18 O=C(O)c1ccccc1-c1c2cc(Br)c(=O)cc-2oc2[c]([Hg])c(O)c(Br)cc12
#19 Cc1ncc(CNC(=O)N(CCCl)N=O)c(N)n1
#20 CC[C@H]1CN2CCC1C[C@H]2[C@H](O)c1ccnc2ccc(OC)cc12 (stereo partly drawn)

| Screen / compound no. | 16 | 17 | 18 | 19 | 20 |
| --- | --- | --- | --- | --- | --- |
| Ab BasE inh | 3.0 | -2.1&1.8 | 15.8&16.2 | -0.2 | -1.9 |
| KSHV LANA nucl | / | 0.777&-0.74&0.425 | -8.73&-10.1&3.58 | -0.764 | 0.252 |

16 neighbouring records from above, for reference:
#1 CC(C)(C)C(=O)c1cn(CC(=O)NCc2ccco2)c2ccccc12
#2 COc1ccc(OC)c(/C=C2\C(=O)C3CCN2CC3)c1
#3 CC1CN(Cn2nc(C(=O)O)c3ccccc32)CC(C)O1 (stereo not drawn)
#4 CC1CCC2C(C)C(=O)OC3OC4(C)CCC1C32OO4 (stereo not drawn)
#5 COc1cc2c(cc1OC)[C@@]13CCN4CC5=CCOC6CC(=O)N2C1[C@H]6[C@H]5C[C@H]43 (stereo partly drawn)
#6 O=C(COc1ccccc1)N1CCN(CC(O)COc2ccccc2)CC1 (stereo not drawn)
#7 CCN1C(=O)NC(=O)/C(=C\c2cn(CC(=O)NCC3CCCO3)c3ccccc23)C1=O (stereo not drawn)

| Screen / compound no. | 1 | 2 | 3 | 4 | 5 | 6 | 7 |
| --- | --- | --- | --- | --- | --- | --- | --- |
| Ab BasE inh | -0.4 | -2.3 | 2.8 | 1.6 | -1.7 | 0.5 | 2.6 |
| KSHV LANA nucl | -0.534 | 0.621 | / | 1.11 | -0.122&-0.397 | -0.212 | -0.687 |

#8 O=C(CNC1CCCCC1)N1CCC2(CC1)OCCO2
#9 C1CNC2NCCNC2N1 (stereo not drawn)
#10 CN1C(=O)C(=Cc2ccco2)C(=O)N(C)C1=O
#11 OCCCNc1c2c(nc3ccccc13)CCCC2
#12 CN(C)C(=O)Oc1cccc(N)c1
#13 O=C1NC(=S)NC(=O)C1=C/C=C/c1ccco1
#14 CNC(C)C(=O)C12CC3CC(CC(C3)C1)C2 (stereo not drawn)

| Screen / compound no. | 8 | 9 | 10 | 11 | 12 | 13 | 14 |
| --- | --- | --- | --- | --- | --- | --- | --- |
| Ab BasE inh | -1.8 | 1.1 | 3.0 | 0.5 | 0.9 | 18.6 | -0.1 |
| KSHV LANA nucl | 2 | -0.18 | 0.043 | 0.764 | / | 1.68 | 0.867 |

#15 COc1ccc(-n2c(CCC(=O)O)nc3ccccc3c2=O)c(OC)c1
#16 S=P1(N2CCOCC2)C2=C(CCC2)C2=C(CCC2)N1c1ccccc1 (stereo not drawn)

| Screen / compound no. | 15 | 16 |
| --- | --- | --- |
| Ab BasE inh | -4.2 | 3.0 |
| KSHV LANA nucl | / | / |

The list continues.
#21 N=C1C(c2ccccc2)=C(O)CN1Cc1ccccc1
#22 CC(=O)OCc1ccoc1C[N+](C)(C)C
#23 N#Cc1ccccc1Cn1cc(C(=O)c2cccs2)c2ccccc21
#24 O=C1NC(=O)C(=Cc2ccccc2)C(=O)N1
#25 c1ccc(C2CN3CCC2CC3)cc1 (stereo not drawn)

| Screen / compound no. | 21 | 22 | 23 | 24 | 25 |
| --- | --- | --- | --- | --- | --- |
| Ab BasE inh | -1.4 | -0.5 | -2.9 | -1.1 | 2.3 |
| KSHV LANA nucl | -0.437 | 0.0535 | -0.068 | 0.209 | -0.394 |

#26 O=c1c2ccccc2nc(-c2ccco2)n1-c1nccs1
#27 CN1C2CCC1CC(N=Cc1ccccc1)C2 (stereo not drawn)
#28 Cc1cc(Br)cc(Br)c1
#29 c1ccc(CN2CCN(Cc3ccc4c(c3)OCCO4)CC2)cc1
#30 Fc1ccc(CNC2=NCCS2)cc1

| Screen / compound no. | 26 | 27 | 28 | 29 | 30 |
| --- | --- | --- | --- | --- | --- |
| Ab BasE inh | 1.6 | / | -0.7 | -1.1 | -0.3 |
| KSHV LANA nucl | 0.0715 | 0.694 | -0.173 | -0.408 | / |

#31 CCOP(=S)(NC)OCC
#32 CNC(Cc1c[nH]c2ccccc12)C(=O)O (stereo not drawn)
#33 CCN(CC)C(=O)c1sc2nc3c(cc2c1N)CN(C)CC3
#34 C[C@@]12N[C@@H](Cc3ccccc31)c1ccccc12
#35 COc1ccccc1CN1CCN(Cc2ccccc2OC)CC1

| Screen / compound no. | 31 | 32 | 33 | 34 | 35 |
| --- | --- | --- | --- | --- | --- |
| Ab BasE inh | -0.5 | -0.1 | -0.1 | -0.7 | -0.1 |
| KSHV LANA nucl | 0.642 | -0.047 | 0.276 | 0.083 | 0.159 |

#36 Cn1c(=O)cc(OCC(=O)N2CCC3(CC2)OCCO3)c2ccccc21
#37 C=CCn1c(C)c(C(=O)OCC)c2cc(O)ccc21
#38 CCCCC/C=C\C/C=C\C/C=C\C/C=C\CCCC(=O)NCc1ccc(O)c(OC)c1
#39 C=C1C(O)(c2ccccc2)C2CC[N+]1(C)CC2 (stereo not drawn)
#40 Cn1cc(C(=O)OCC(N)=O)c2ccccc21

| Screen / compound no. | 36 | 37 | 38 | 39 | 40 |
| --- | --- | --- | --- | --- | --- |
| Ab BasE inh | 1.5 | 1.1 | 0.8 | 1.9 | 0.9 |
| KSHV LANA nucl | -0.551 | -0.75 | -0.381 | / | / |

#41 CNC(=O)O/N=C(\N)Cc1csc2ccccc12
#42 COc1ccc(CN2CCN(Cc3ccccc3)CC2)cc1
#43 NCCC(O)C(=O)NC1CC(N)C(OC2OC(CN)C(O)[C@H](O)[C@@H]2N)[C@H](OC2O[C@H](CO)[C@@H](O)[C@@H]2O)[C@@H]1O (stereo partly drawn)
#44 C[C@]12CC[C@H](O)CC1=CC[C@@H]1[C@@H]2CC[C@@]2(C)[C@H]1CC[C@]2(C)O
#45 O=C1NC(c2cccnc2)Nc2ccccc21 (stereo not drawn)

| Screen / compound no. | 41 | 42 | 43 | 44 | 45 |
| --- | --- | --- | --- | --- | --- |
| Ab BasE inh | 1.0 | 3.7 | -5.2 | / | -0.1 |
| KSHV LANA nucl | 0.0735 | -0.754 | 1.72 | 0.196 | / |

#46 C=C1N2CCC(CC2)C1(O)c1ccc(C)cc1 (stereo not drawn)
#47 O=S1(=O)CC2(N3CCOCC3)CCCCC21 (stereo not drawn)
#48 CCN1CCN(Cc2ccc(Cl)cc2)CC1
#49 CC(=O)OCC(=O)[C@H]1CC[C@H]2[C@@H]3CC[C@H]4C[C@H](O)CC[C@]4(C)[C@H]3C(=O)C[C@]12C
#50 CCOC(=O)C1CCN(/C=C2/C(=O)NC(=O)N(c3ccc(OCC)cc3)C2=O)CC1

| Screen / compound no. | 46 | 47 | 48 | 49 | 50 |
| --- | --- | --- | --- | --- | --- |
| Ab BasE inh | -0.1 | 2.4 | 1.4 | 2.2 | 1.8 |
| KSHV LANA nucl | 0.58 | -0.48 | -0.201 | -0.479 | 0.0545 |

#51 COc1cccc2c1cc([N+](=O)[O-])c1c(C(=O)O)cc3c(c12)OCO3
#52 CNc1ccc(C(=O)CC(O)CCC(C)C2OC(=O)CC(O)CC(=O)CC(O)CC(O)CC(O)CC(O)CC3(O)CC(O)C(C(=O)OC)C(CC(O[C@@H]4O[C@H](C)[C@@H](O)[C@H](N)[C@@H]4O)/C=C/C=C/C=C/C=C/C=C/C=C/C=C/C2C)O3)cc1 (stereo partly drawn)
#53 N#CCCn1cc(C(N)=O)c(-c2ccccc2)n1
#54 O=P(O)(NC1CCCCC1)NC1CCCCC1
#55 CCC1(C)CC(=O)NC(=O)C1

| Screen / compound no. | 51 | 52 | 53 | 54 | 55 |
| --- | --- | --- | --- | --- | --- |
| Ab BasE inh | 1.9 | 1.1 | -4.5 | -0.6 | 2.1 |
| KSHV LANA nucl | 0.022 | 0.308&-0.795 | 2.42 | / | 0.246 |

The closing 2 compounds of the part above are carried over, then new ones follow:
#54 O=P(O)(NC1CCCCC1)NC1CCCCC1
#55 CCC1(C)CC(=O)NC(=O)C1
#56 O=C(Nc1cccnc1)c1c(O)c2ccccc2n(Cc2ccccc2)c1=O
#57 C=C1[C@@H](O)C2O[C@@]3(CCC2O[C@@H]1C(O)C[C@H](C)C1O[C@@]2(CCCCO2)CC[C@H]1C)CC[C@@H](/C=C/[C@@H](C)[C@@H]1CC(C)=C[C@@]2(O[C@H](C[C@@](C)(O)C(=O)O)CCC2O)O1)O3 (stereo partly drawn)
#58 Cc1ccc(C2N3CC(C)(C)CN23)cc1 (stereo not drawn)
#59 COCCCNC1CC2CCC1C2 (stereo not drawn)
#60 COc1ccc2c(c1OC)C(=O)O[C@@H]2[C@@H]1c2cc3c(cc2CCN1C)OCO3

| Screen / compound no. | 54 | 55 | 56 | 57 | 58 | 59 | 60 |
| --- | --- | --- | --- | --- | --- | --- | --- |
| Ab BasE inh | -0.6 | 2.1 | 0.3 | / | 4.4 | -3.9 | 3.2 |
| KSHV LANA nucl | / | 0.246 | 0.265 | 0.562 | 0.273 | 2.44 | -0.239 |

#61 Cc1cc(Nc2ccc(N3CCCC3)cc2)n2c(nc3ccccc32)c1C#N
#62 c1csc(CNC2=NCCS2)c1
#63 COc1ccc2c(c[n+](C)c3c4cc5c(cc4ccc23)OCO5)c1OC
#64 COc1ccc(NC(=O)N2Cc3ccccc3-n3cccc3C23CCN(C)CC3)cc1
#65 CCN1C(=O)NC(=O)/C(=C\c2cn(CC(=O)N3CCCC3)c3ccccc23)C1=O
#66 OC(CNCC1CCCCC1)c1ccccc1 (stereo not drawn)
#67 Oc1cccc2cccnc12
#68 CN(C)P1(N(C)C)=NC(C(F)(F)F)=NC(C(F)(F)F)=N1

| Screen / compound no. | 61 | 62 | 63 | 64 | 65 | 66 | 67 | 68 |
| --- | --- | --- | --- | --- | --- | --- | --- | --- |
| Ab BasE inh | 1.3 | -2.5 | -0.1 | -2.8 | 0.8 | 1.2 | 0.7 | -5.0 |
| KSHV LANA nucl | -0.0965 | / | -0.578 | 0.0365 | / | / | -0.113&0.575 | / |
